High-throughput results from PubChem BioAssay.
B2AR ag – beta2AR agonists driving receptor internalization, primary screen, cell-based, FAP fluorogen, flow cytometry. Beta-2 adrenergic receptor (Homo sapiens), P07550. Am2.2-beta2AR cells; reference of the scale not given here. response, % (no concentration beside the values). 340,000 compounds, 0.43% hits. AID 504454, 2011;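 active = response above a set limit, near 3 SD of response in nonfluorescent compounds, cut at about 42% in these data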;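 note: stock transfer was 100 nL into about 11 µL; a reference agonist was the positive control; negative values mostly stem from fluorescent compounds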
RanGTP-Imp inh – inhibitors of RanGTP-importin-beta interaction, primary screen, biochemical, FRET, CFP-Ran, YFP-importin-beta, homogeneous. 300,000 compounds, 1.1% hits. inhibition, % (no concentration beside the values). Ran GTPase (GTP-bound) - importin-beta complex. cell-free CFP-Ran/YFP-importin-beta FRET ratio;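 active = most replicates above 15%; inconclusive = exactly half above 15%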;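 note: 0% = DMSO wells and 100% = Ran loaded with GDP instead of GTP; wells of about 40 µL received 100 nL stock; the first replicate is given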
LANA-H2B inh – blockers of LANA interaction with H2A/H2B – biochemical, FP readout, HTS, primary screen; AID 2629, 2010; cell-free LANA-H2A/H2B peptide, fluorescence polarization; Protein LANA1 (Human herpesvirus 8 type P (isolate GK18)), Q9QR71; inhibition, % (concentration not given with the values); 320,000 compounds, 0.6% hits; in the data active = inhibition mostly above about 10%, no sharp cut-off; inactive = mostly below about 6.7%;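 note: stock transfer was 7.5 nL into about 10 µL; 0% = median of vehicle wells and 100% = median of positive control wells; one replicate is shown; the record names a cut of 25% in any replicate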
Target sequence (Q9QR71 whole entry, looked up): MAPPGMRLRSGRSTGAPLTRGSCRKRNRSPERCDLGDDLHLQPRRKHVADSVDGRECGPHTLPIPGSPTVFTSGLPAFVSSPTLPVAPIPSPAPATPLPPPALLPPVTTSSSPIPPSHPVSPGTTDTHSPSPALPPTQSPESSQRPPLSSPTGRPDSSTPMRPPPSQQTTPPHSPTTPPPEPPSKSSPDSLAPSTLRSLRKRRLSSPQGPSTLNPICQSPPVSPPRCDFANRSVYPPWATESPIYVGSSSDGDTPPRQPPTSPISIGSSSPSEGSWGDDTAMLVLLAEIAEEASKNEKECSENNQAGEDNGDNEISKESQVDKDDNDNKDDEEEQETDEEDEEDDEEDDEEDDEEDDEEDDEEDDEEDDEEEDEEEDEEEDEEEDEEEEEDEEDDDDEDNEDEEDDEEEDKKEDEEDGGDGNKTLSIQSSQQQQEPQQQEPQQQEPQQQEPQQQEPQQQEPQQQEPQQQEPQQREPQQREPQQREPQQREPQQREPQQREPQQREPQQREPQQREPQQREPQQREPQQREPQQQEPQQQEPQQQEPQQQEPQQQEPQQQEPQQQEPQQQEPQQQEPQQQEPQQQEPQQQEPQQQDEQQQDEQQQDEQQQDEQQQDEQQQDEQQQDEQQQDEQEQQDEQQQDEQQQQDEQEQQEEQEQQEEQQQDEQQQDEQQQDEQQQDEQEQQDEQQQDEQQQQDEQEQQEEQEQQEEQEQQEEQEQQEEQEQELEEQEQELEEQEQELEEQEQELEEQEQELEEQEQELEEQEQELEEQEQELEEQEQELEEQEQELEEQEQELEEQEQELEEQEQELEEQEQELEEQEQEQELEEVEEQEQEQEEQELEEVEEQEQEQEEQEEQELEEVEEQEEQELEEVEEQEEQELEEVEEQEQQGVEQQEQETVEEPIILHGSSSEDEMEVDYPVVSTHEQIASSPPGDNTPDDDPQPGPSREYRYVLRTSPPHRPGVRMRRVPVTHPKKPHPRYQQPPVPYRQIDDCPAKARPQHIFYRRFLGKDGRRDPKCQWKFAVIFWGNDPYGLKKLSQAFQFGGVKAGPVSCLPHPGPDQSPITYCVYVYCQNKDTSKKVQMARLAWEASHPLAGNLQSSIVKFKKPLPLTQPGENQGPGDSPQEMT
T cruzi repl – inhibitors of intracellular T. cruzi growth, primary screen, luminescence, NIH3T3 host cells; T. cruzi beta-gal in NIH3T3, 90 h; 300,000 compounds, 1.4% hits; inhibition, % (test concentration not listed); AID 1885, 2009;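 active = mean inhibition across valid replicates above about 55%, limit read from the data; inconclusive = mean below that limit but half or more replicates reach it; inactive = mean below it, under half of replicates reach it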;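 note: signal also drops with host cell toxicity which is not excluded here; 0% = plate median of DMSO wells and 100% = zero luminescence signal; higher percent means less beta-gal luminescence so fewer parasites; stock transfer was 50 nL into about 50 µL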
Beta apoptosis – inhibitors of cytokine-induced beta cell apoptosis, primary screen, luminescence. protection from apoptosis, % (concentration not given with the values). AID 435005, 2010. INS-1E cytokine-induced death, ATP luminescence, 48 h; percent of positive-control rescue, neutral wells zero. 300,000 compounds, 0.8% hits;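 active = all replicates at 75% or more, or half of them and the mean; inconclusive = half reach 75% but not the mean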;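 note: 0% = cytokine-treated negative control wells and 100% = positive control rescue; higher means more ATP so stronger rescue from cytokine killing; wells of about 40 µL received 100 nL stock; the first replicate is given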
A1 inh – caspase 3/7 activation in MEF A1-2A-BIM cells, primary screen, A1 inhibitor project, cell-based, luminescence, HTS; Caspase-Glo 3/7 luminescence, 3 h; percent of clofoctol response, vehicle zero; 330,000 compounds, 0.066% hits; caspase activation, % (test concentration not listed);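 active = over half of replicate activation scores above 10%, or exactly half above 10 with the replicate mean above 10; inconclusive = replicate mean below 10 yet half the replicates above 10; inactive = over half of replicates below 10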;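 note: wells of about 30 µL received 50 nL stock; many hits fall short of the cut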
UCH37 DUB inh – inhibitors of human UCH37 deubiquitinase, primary screen, biochemical, Ub-AMC cleavage, fluorescence. purified proteasome/UCH37. inhibition, % (no concentration beside the values). 330,000 compounds, 0.33% hits. Ubiquitin carboxyl-terminal hydrolase isozyme L5 (Homo sapiens), Q9Y5K5;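 active = mean of two replicates above 20%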;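 note: 0% = compound-free wells with enzyme and 100% = wells lacking proteasome; stock transfer was 100 nL into about 20 µL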
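Material: Human UCH37 enzyme supplied as purified proteasome complex | Schedule: 30 min preincubation with enzyme, 25 min cleavage at room temperature | Detection: AMC fluorescence 355/460 nm | Measure: % inhibition of Ub-AMC cleavage fluorescence | Controls: Wells without proteasome as full block, compound-free enzyme plus substrate as uninhibited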
Calb FLC – C. albicans growth inhibition with fluconazole, primary screen, CaCi-2 strain, Alamar Blue fluorescence | C. albicans CaCi-2 (fluconazole-resistant clinical isolate) + fluconazole, 48 h | growth inhibition, % (test concentration not listed) | 300,000 compounds, 0.57% hits;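 active = most replicates above 75%; inconclusive = exactly half above 75%; inactive = most below 75%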;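 note: all wells also contain fluconazole at 8 µg/ml as a sub-toxic cotreatment; 0% = median of DMSO wells and 100% = median of geldanamycin control wells; wells of about 8 µL received 7.5 nL stock; the first replicate is given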
* hit, by the source's call; ? = inconclusive; . = no result given.

SMILES	B2AR ag	RanGTP-Imp inh	LANA-H2B inh	T cruzi repl	Beta apoptosis	A1 inh	UCH37 DUB inh	Calb FLC
O=C(CN(Cc1ccccc1Cl)C(=O)CCC(=O)Nc1nccs1)NCC1CCCO1 (stereo not given)	0	-0.8	-1.4	-9	-3	-0.2	-0.2	-1
Cc1cc(OCCN2CCOCC2)nc2ccccc12	-6	5.4	-1.6	-20	2	0.4	1.6	-3
Cc1ccc(CNC(=O)C2CCCN(S(=O)(=O)c3c(C)n[nH]c3C)C2)cc1 (stereo not given)	4	3.4	-5.6	-13	-5	0.5	2.5	12
COc1cc(-c2nc3oc4ccccc4c(=O)c3c(=O)n2Cc2ccco2)cc(OC)c1OC	2	2.0	-15	27	18	0.3	4.4	-9
CCOc1ccc2nc(N3CCCC(C(=O)NCCCN4CC(C)CC(C)C4)C3)sc2c1 (stereo not given)	11	?	-4.1	49	.	-1.1	2.5	-22
CCOCCn1c(SCc2ccc(C)cc2)nc2c1c(=O)[nH]c(=O)n2C	7	-4.3	-1.9	2	0	-0.2	2.2	-12
O=C(/C=C\NCC(=O)c1ccccc1)c1ccc(F)cc1	1	-1.7	-3.0	-14	-4	0.9	3.1	-10
CSc1ccc(CNC(=O)CCn2ccc3cc(S(=O)(=O)N4CCCC4)ccc32)cc1	-3	-5.2	12	5	2	0.7	0.6	-1
Cc1ccc(-n2cccn2)c(CN2CCCC(C(=O)c3sccc3C)C2)c1 (stereo not given)	1	0.4	.	37	8	0.6	5.7	-4
CCc1c(C)nc2ncnn2c1N1CCC(C(=O)NCc2ccc3c(c2)OCO3)CC1	-9	-1.7	0.8	-5	-7	0.1	6.2	-8
COc1ccc(NC(=O)c2sc3nc(N4CCOCC4)c4c(c3c2N)CCCC4)c(OC)c1	4	-2.5	4.6	-1	-1	1.0	-189	2
O=C(CN1CCC(n2nnc3cc(F)ccc32)CC1)NCc1ccco1	-4	?	1.3	-2	5	-0.3	2.4	38
Cc1ccc(NC(=O)CCC(=O)Nc2ccc(C)cc2)cc1	1	-3.5	-4.4	-10	-2	-0.6	1.3	0
Cc1cc(F)ccc1NC(=S)NCCc1ccccc1	3	0.0	-0.7	-4	2	-0.5	7.0	-17
Cc1cc(C)n(C(=O)c2ccc([N+](=O)[O-])c(Cl)c2)n1	-2	2.0	2.3	-2	-2	0.1	4.8	-26
Cn1c(=O)c2c(nc(CN3CCOCC3)n2CCCO)n(C)c1=O	-3	-3.1	-1.6	3	-2	0.3	2.5	8
COc1cc2[nH]c(=O)n(CCCCCC(=O)NC3CCCC3)c(=O)c2cc1OC	1	1.1	-0.9	-8	-3	1.0	-7.6	-1
Cc1ccc(C)c(S(=O)(=O)N2CCN(C(=O)CNC(=O)c3ccc4ccccc4c3)CC2)c1	.	-2.8	-0.4	10	6	0.1	-1.8	18
Cc1scc(C(=O)N2CCN(c3ccc(Cl)cc3)CC2)c1C	-3	2.2	-3.1	24	-4	0.2	1.1	4
CCN(CC)C(=O)COC(=O)c1cc(-c2ccc(OC)cc2)nc2ccccc12	10	0.1	1.1	18	5	-0.5	-147	7

Complete entries, quoted from the list. Order of values: B2AR ag, RanGTP-Imp inh, LANA-H2B inh, T cruzi repl, Beta apoptosis, A1 inh, UCH37 DUB inh, Calb FLC
COc1cc2[nH]c(=O)n(CCCCCC(=O)NC3CCCC3)c(=O)c2cc1OC in the list: 1, 1.1, -0.9, -8, -3, 1.0, -7.6, -1
O=C(CN(Cc1ccccc1Cl)C(=O)CCC(=O)Nc1nccs1)NCC1CCCO1 (stereo not given) in the list: 0, -0.8, -1.4, -9, -3, -0.2, -0.2, -1

Following part:
SMILES	B2AR ag	RanGTP-Imp inh	LANA-H2B inh	T cruzi repl	Beta apoptosis	A1 inh	UCH37 DUB inh	Calb FLC
C=CCNC(=O)C(=O)NCC1CCCN1S(=O)(=O)c1cccs1 (stereo not given)	-9	-3.0	2.5	-3	0	1.0	2.1	-2
O=C(NCC1(c2ccccc2)CCCC1)c1ccccc1Br	8	-0.4	-3.6	5	8	1.4	3.1	-5
CCn1c(SCC(=O)NC2=NCCS2)nnc1C(C)NC(=O)c1ccc(Cl)cc1 (stereo not given)	0	-5.4	-1.3	2	-16	-0.2	.	-5
CC(=O)CSc1nnc(-c2ccc(S(=O)(=O)N3CCC(C)CC3)cc2)o1	-1	-8.3	6.0	8	-7	-0.6	7.1	-10
Cc1ccn2c(=O)nc(SCC(=O)NCCc3ccccc3)nc2c1	-1	1.3	5.8	-13	.	0.3	-3.3	-8
OCCN1CCOCCN(CCO)CCOCC1	7	2.1	2.8	6	-4	1.5	0.5	-2
O=C(CN1CCCCCC1)Nc1ccc([N+](=O)[O-])cc1Br	-15	-2.7	2.9	15	3	0.3	2.2	18
Cc1ccc2c(c1)N(C(=O)CCC(=O)N1CCCCC1)CCO2	-10	1.6	3.1	-3	-6	-0.3	4.1	7
COc1ccc(NC(=S)N2CCN(C(=O)C3CCCO3)CC2)cc1 (stereo not given)	-5	4.3	-7.5	-7	-5	0.4	0.2	-5
NNc1nc(-c2ccccc2)cc(-c2ccccc2O)n1	20	1.6	1.1	40	79*	0.7	7.2	?
C=CCNC(=S)Nc1ccccc1	-3	0.0	-1.7	-19	.	-0.1	1.1	0
CCCC(=O)Oc1ccc(C2NC(=O)c3ccccc3O2)cc1 (stereo not given)	-13	-5.4	5.6	5	-6	0.1	0.0	5
O=C1OCC2=C1C(c1ccc3c(c1)OCO3)Sc1ccccc1N2 (stereo not given)	2	2.0	1.2	30	-1	-0.2	0.3	0
NC(=O)C1CCN(C(=O)c2cc(-c3ccc(Cl)s3)nc3ccccc23)CC1	8	.	6.3	.	-3	-1.3	-437	.
COc1ccc(Cc2nnc(Nc3ccc4c(c3)OCCO4)[nH]c2=O)cc1	-3	4.7	3.2	-21	-4	1.3	2.9	-9
CCOC(=O)Cc1csc(NC(=S)NC(=O)c2ccc(C)cc2)n1	9	0.7	-1.6	-1	-6	-0.4	3.2	4
Cc1sc2ncn(CC(=O)NC3CCCCC3)c(=O)c2c1C	-2	.	-3.3	.	0	0.3	0.9	.
Cc1ccccc1C(=O)NNC(=O)C(=O)N1CCCCC1	-2	3.7	.	-1	-5	0.4	4.5	5
CCN(CC)c1ccc(C=Nc2ccc(C#N)cc2)c(O)c1	1	-1.1	1.7	2	-2	-2.4	16	-3
CS(=O)(=O)N(Cc1ccccc1F)c1ccccc1	4	-0.2	0.4	-2	2	-0.8	-0.1	36
Cc1nn2c(C(F)(F)F)cc(-c3ccc(Cl)cc3)nc2c1C(=O)N1CCOCC1	-4	1.7	-1.9	.	2	0.4	0.2	7
CCCN1CCN(CCCNC(=O)C2CCCN(c3nc4ccc(OCC)cc4s3)C2)CC1 (stereo not given)	-7	?	-0.7	-3	10	0.2	3.9	-11
O=C1c2cccc(OCC(=O)N3CCCc4ccccc43)c2CCN1Cc1ccc(Br)cc1	-3	-2.0	0.1	33	7	-0.9	2.6	3
O=C(NC1CC1)c1cc(-c2ccccn2)nc2ccccc12	-3	-0.7	1.6	4	0	0.8	0.2	-30
CCOC(=O)CN1c2ccccc2NC(=O)CC1C (stereo not given)	4	2.8	-0.7	-4	-2	-0.5	3.8	-2
CCOC(=O)c1ccc(Nc2cnc3ccccc3n2)cc1	-2	0.3	-0.2	-18	5	-2.3	-124	-26
CCNc1nc(SCC(=O)Nc2ccc(Cl)c(Cl)c2)nc(N(C)C)n1	-8	1.8	3.0	13	-2	0.9	1.1	-18
O=C(Nc1cccc(C(=O)N2CCCCC2)c1)c1ccc(Cl)cc1	1	1.3	4.9	11	.	-0.4	2.3	-5
CCOC(=O)c1cc(-c2ccccc2)sc1NC(=O)C(C)OC(=O)c1cccnc1OCC (stereo not given)	0	1.2	3.5	-11	-7	-0.3	-11	0
CN(C(=O)CSc1nc2ccccc2o1)C1CCS(=O)(=O)C1 (stereo not given)	2	.	6.8	.	-5	-0.8	-0.2	.
Cc1ccc(-n2ncc3c(SCC(N)=O)ncnc32)cc1C	10	-0.5	.	5	.	.	-6.9	8
CC(C)c1ccc2oc(-c3ccc(N)cc3)nc2c1	-2	0.1	-2.3	13	19	-3.8	-243	0
CCOC(=O)c1cc(NC(=O)c2ccoc2C)cc(C(=O)OCC)c1	-1	-2.1	-0.7	32	11	-0.2	3.7	-1
O=C(CSc1nc2ccccc2[nH]1)N/N=C/C=C/c1ccccc1[N+](=O)[O-]	-5	0.5	-3.5	-24	-2	1.0	.	7
CC(C)CC(c1nnnn1Cc1cccs1)N1CCN(c2nc3ccccc3s2)CC1 (stereo not given)	-1	2.1	-0.2	35	33	-0.3	-0.6	6
C=CCn1c(SCc2c(F)c(F)c(F)c(F)c2F)nc(O)cc1=O	2	-0.2	-0.3	-15	-4	0.9	-0.7	53
CCOCCCn1cnc2c(c1=O)c1nc3ccccc3nc1n2-c1ccc(C)cc1	-18	-3.9	-1.4	-5	6	-0.1	-34	26
CCN1CCCC1CNS(=O)(=O)c1ccc(C(=O)Nc2ccccc2)cc1 (stereo not given)	2	0.9	-6.3	11	-5	-0.5	3.0	-2
COc1ccccc1/C=C1\S/C(=N/NC(=O)c2cccc(Br)c2)NC1=O	5	1.8	0.5	18	16	-0.8	-5.7	?
Cc1cc(C)c(C#N)c(SCC(=O)N(C)C2CCCCC2)n1	-5	4.7	-2.9	3	-4	-1.3	1.0	5
CCOC(=O)CN1C(=O)S/C(=C\c2ccc(-c3cccc(C(=O)O)c3C)o2)C1=O	-3	8.4	-2.0	-11	-3	-5.4	8.2	-3
COCCNC(=O)c1c[nH]c2ccc(S(=O)(=O)N3CCc4ccccc43)cc2c1=O	6	?	2.5	20	-17	0.4	-0.6	-32
O=C1CC(N2CCN(S(=O)(=O)c3cccc(C(F)(F)F)c3)CC2)C(=O)N1Cc1ccccc1 (stereo not given)	3	3.0	-1.7	-8	0	1.6	2.0	3
CCOc1ccc(OCc2cccc(C(=O)N/N=C/c3cccnc3)c2)cc1	5	-3.9	-3.7	10	7	-0.4	.	1
COc1ccc(C2CC(=O)Nc3ccccc3S2(=O)=O)cc1OC (stereo not given)	-2	.	-0.3	.	-3	-0.4	0.3	.
COCCCN1C(=O)CS/C1=N\S(=O)(=O)c1ccccc1	3	?	1.0	-10	-3	0.1	.	1
O=C1CN(S(=O)(=O)c2ccccc2)c2ccccc2N1	0	?	-3.4	-8	0	0.1	.	-17
CCC(=O)N1c2ccccc2C(N(C(C)=O)c2ccccc2)CC1C (stereo not given)	1	-4.7	-5.4	1	.	-0.6	1.5	0
Cc1ccc(-n2cccc2/C=C2/NC(=O)N(CC(=O)Nc3cccc(C)c3)C2=O)cc1	4	2.2	0.2	11	10	0.2	.	-3
CN1CCN(c2ccc(NC(=O)c3ccc(-c4cccc([N+](=O)[O-])c4)o3)cc2)CC1	1	?	4.7	50	4	1.5	9.7	11
